VDR inhibitor – Inhibitors of the vitamin D receptor (VDR): qHTS; 400,000 compounds, 0.93% hits; Vitamin D3 receptor (Homo sapiens), P11473; VDR-SRC2-3 peptide fluorescence polarization, 2 h; Potency, µM, inactives show max response, negative = inhibition, hits mostly inhibitors; active means well fitted inhibition curve with a large enough effect; inconclusive means small, poorly fitted or top-dose-only effect, or another doubt; inactive means no such curve, though single readings can be large or run the other way; further: series mostly up to about 120 µM
Target sequence (P11473 whole entry, looked up): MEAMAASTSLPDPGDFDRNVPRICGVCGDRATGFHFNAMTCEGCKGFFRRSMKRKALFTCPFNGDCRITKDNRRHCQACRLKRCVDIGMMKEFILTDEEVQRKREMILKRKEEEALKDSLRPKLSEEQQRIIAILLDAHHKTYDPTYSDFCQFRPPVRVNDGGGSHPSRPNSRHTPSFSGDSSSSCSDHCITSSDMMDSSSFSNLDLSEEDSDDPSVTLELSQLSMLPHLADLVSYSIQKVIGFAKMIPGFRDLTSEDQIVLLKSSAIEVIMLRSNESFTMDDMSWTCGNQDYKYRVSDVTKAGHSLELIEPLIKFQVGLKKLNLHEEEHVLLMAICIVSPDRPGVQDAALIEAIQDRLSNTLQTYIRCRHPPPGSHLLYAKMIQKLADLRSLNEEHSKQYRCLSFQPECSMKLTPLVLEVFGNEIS
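Signal is fluorescence polarization, reporting how far test compounds block the interaction of VDR with the SRC2-3 coregulator peptide after a 2 h room-temperature incubation.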
Numbers without * were called inactive; ? = inconclusive; & = joins results of further samples. On the % scale 0 is the no-effect control and ±100 the full control effect; potency means the concentration at half of the fitted maximal effect.

No.	mol	VDR inhibitor
1	O=C1C2CCCN2C(c2ccccc2F)N1c1cccc(Cl)c1 (stereo not drawn)	-21.3%
2	Clc1nc(N2CCOCC2)ncc1Br	-16.7%
3	Cc1nn(C)cc1CNC(=O)Nc1ccc(Br)cc1Cl	-16.5%
4	CCOc1ccc(CNC(=O)C(C)n2ccc3cc(S(=O)(=O)N4CCCC4)ccc32)cc1 (stereo not drawn)	7.7%
5	O=C(CCCn1c(=O)oc2ccccc21)Nc1ccccc1	-14.6%
6	COC(=O)c1ccccc1NC(=O)c1cn2c3c(ccc(Cl)c3c1=O)OC(C)C2 (stereo not drawn)	6.6%
7	COc1ccc(N(CC(=O)NCCc2ccccc2)S(=O)(=O)c2ccccc2)c(OC)c1	-1.8%
8	NC(=NCc1ccc(Cl)cc1Cl)NC(=O)c1nc(Cl)c(N)nc1N	-20.5%&-0.6%
9	COc1ccccc1-n1ccnc(SCC(=O)NC2CCCC2)c1=O	16.5%
10	CCOc1ccc(-c2cc(C(=O)NCCc3ccc(Cl)cc3)c3ccccc3n2)cc1	-3.1%
11	N/C(=N\c1nc2ccccc2o1)NC(=O)c1ccc([N+](=O)[O-])cc1	6.2%
12	COc1ccc(S(=O)(=O)N2CCCC2CNC(=O)C(=O)NCc2ccccn2)cc1 (stereo not drawn)	-0.6%
13	CC(CCc1ccccc1)NC(=O)c1ccccc1Cl (stereo not drawn)	-3.5%
14	COc1ccccc1-c1cc(=O)c2c(O)ccc([N+](=O)[O-])c2o1	-11.2%
15	COC(=O)[C@@]1(Cc2ccc(OC)cc2)[C@H]2c3cc(C(=O)N4CCCC4)n(CCn4cc([N+](=O)[O-])nc4C)c3C[C@H]2CN1C(=O)c1ccccc1	-5.2%
16	CCN(CC)CCN(Cc1cc2cc3c(cc2[nH]c1=O)OCO3)C(=S)NCCCOC	1.1%
17	COc1ccc(S(=O)(=O)N2CCC(Oc3ccc(-n4cnnn4)cc3)CC2)cc1	9.4%
18	O=C(/C=C/c1ccc2c(c1)OCO2)c1cccnc1	?
19	CCOC(=O)C1CCN(C(=O)COc2ccc(Cl)cc2Cl)CC1	5.2%
20	O=C(Cn1nnc2c(cnn2-c2ccc(F)cc2)c1=O)Nc1ccccc1C(F)(F)F	-20.7%
21	CC1(C)c2[nH]c3ccccc3c2C[C@H]2C(=O)N(Cc3ccccc3)C(=O)N21	-0.1%
22	CC12CCC(C(=O)N(CSC(=S)N/N=C\c3ccccc3)C1=O)C2(C)C (stereo not drawn)	-17.2%
23	Cc1oc(S(=O)(=O)N2CCCCC2)cc1NC(=O)Nc1ccc(Cl)cc1	7.5%
24	CC1CCCN(C(=O)c2ccc(OC3CCN(CCc4ccccc4)CC3)cc2)C1 (stereo not drawn)	-1.4%
25	Cc1nccc2oc(=O)c(NC(=O)c3ccc(Cl)cc3)cc12	-23.2%
26	CSCC[C@H](NC(=O)N1CCn2c1nc1ccccc12)C(=O)NCC1CCCO1 (stereo partly drawn)	7.6%
27	CCOc1ccc(Cl)cc1CSc1n[nH]c(C)n1	12.3%
28	Cc1cc(C)n2nc(N)c(N=Nc3ccccc3)c2n1	-6.6%
29	CCCCn1c(N)c(N(CCOC)C(=O)c2ccc(C)o2)c(=O)[nH]c1=O	-25.3%
30	O=C(CCN1C(=O)c2ccccc2C1=O)NCc1ccccc1	6.9%
31	CCOc1ccc(S(=O)(=O)Nc2ccc(C(=O)N3CCCC3)cc2)cc1	12.5%
32	CC(C)c1nc2ccc(C(=O)Nc3ccccc3F)cc2o1	7.5%

3 entries already listed, sorted by count of non-hydrogen atoms, lowest first.
No.	mol	VDR inhibitor
25	Cc1nccc2oc(=O)c(NC(=O)c3ccc(Cl)cc3)cc12	-23.2%
30	O=C(CCN1C(=O)c2ccccc2C1=O)NCc1ccccc1	6.9%
31	CCOc1ccc(S(=O)(=O)Nc2ccc(C(=O)N3CCCC3)cc2)cc1	12.5%

New compounds follow.
No.	mol	VDR inhibitor
33	CCN(CC)CCn1c(=N)n(CC(=O)c2ccc(C)cc2)c2ccccc21	12.4%
34	CC[C@H](C)[C@H](NC(=O)[C@H](Cc1ccccc1)NC(=O)[C@H](C)NC(=O)[C@H](CC(=O)O)NC(=O)[C@H](CCCCN)NC(=O)[C@H](CO)NC(=O)[C@@H]1CCCN1C(=O)[C@@H]1CCC(=O)N1)C(=O)NCC(=O)N[C@@H](CC(C)C)C(=O)N[C@@H](CCSC)C(N)=O	8.0%
35	O=C(Cn1cnc2onc(-c3ccc(F)cc3)c2c1=O)N1CCN(c2ccc(F)cc2)CC1	2.1%
36	COC(=O)[C@@]1(C)[C@H]2C(=O)N(Cc3ccccc3)C(=O)[C@H]2[C@H]2CN=C(SCc3ccccc3)N21	-13.2%
37	CC(C)CN1CCC(CN2CCNC(=O)C2=O)CC1	-4.6%
38	O=C1NCCN1CCN1C(=O)c2ccccc2NC1c1ccccc1 (stereo not drawn)	6.8%
39	Cc1onc(-c2ccccc2)c1C(=O)N/N=C/c1cccs1	-4.2%
40	NCCCNCCCCNCCCN	0.0%&2.0%
41	COc1ccc(OC)c(NC(=O)N2CC3CCCN3c3ccccc32)c1 (stereo not drawn)	15.0%
42	CC(C)n1nnnc1SCC(=O)NCc1cccs1	-2.4%
43	CCn1c(SCC(=O)NC2CC2)nnc1-c1ccc(C)cc1	2.8%
44	COc1ccc(NC(=O)c2cccc(C#N)c2)cc1NS(=O)(=O)c1ccc(F)cc1	-20.2%
45	Cc1ccc(S(=O)(=O)N2CCN(C(=O)CCCN3C(=O)NC4(CCCC4)C3=O)CC2)cc1C	-9.3%
46	Cc1nnsc1C(=O)NC1CCCCC1	-7.0%
47	CC(=O)c1cc(-c2ccccc2)n(CCC(=O)NCc2cccs2)c1C	3.5%
48	CCOP(=O)(c1ccc(N(C)C)cc1)C(O)c1ccc(C)cc1 (stereo not drawn)	25.2%
49	COC(=O)c1cn(C(=O)c2cc(Br)ccc2Cl)c2ccccc12	-12.2%
50	N#Cc1ccc(-c2ccc(Cl)cc2)nc1SCC(=O)c1cccc(Cl)c1	2.0%
51	COc1ccc(-c2nnc(SCC(=O)N3CCCCC3)o2)c(OC)c1	-17.0%
52	Cc1occc1C(=O)N(C)Cc1nc(-c2ccccc2)no1	3.4%
53	COc1ccc(-c2csc3ncnc(N4CCN(S(=O)(=O)c5ccc(C)c(C)c5)CC4)c23)cc1	-1.6%
54	Cc1ccc(NC(=O)CCc2nnc3ccc(N4CCC(C)CC4)nn23)nc1	2.6%
55	Cc1ccc(-n2nnc(C(=O)Nc3cc(F)ccc3F)c2C)cc1F	-5.5%
56	COc1ccc(NC(=O)C/C(C)=N/NC(=O)c2cnccn2)c(OC)c1	6.8%
57	COc1ccc(C2=CC(=O)C[C@H](c3ccc(F)cc3)C2)cc1OC	-15.0%
58	COCCCn1c(=O)c2ccccc2n(Cc2cc(C(=O)OC)ccc2OC)c1=O	-19.4%
59	Cc1ccc2occ(CC(=O)Nc3ccc(S(=O)(=O)N4CCC(C)CC4)cc3)c2c1	-11.3%
60	O=C(COC(=O)/C=C/c1cccc([N+](=O)[O-])c1)NCc1ccc2c(c1)OCO2	-25.0%
61	CN(Cc1ccc(F)cc1)C(=O)c1cccc(S(=O)(=O)N2CCN(c3ccccc3)CC2)c1	0.7%
62	O=C(Cn1ncc2c(=O)oc3ccccc3c21)NCC1CCCO1 (stereo not drawn)	-23.1%
63	Cc1cnnn1-c1ccc([N+](=O)[O-])cc1	26.3%
64	Cc1nc2sc(C)c(C)n2c(=O)c1S(=O)(=O)N1CCN(c2ccccc2F)CC1	15.0%
65	Cc1ccccc1Cc1c(C)nc2nc(SCC(=O)N(C)c3ccccc3)nn2c1C	7.6%
66	COc1ccc(Cl)cc1NC(=O)C1CCCN(S(=O)(=O)c2ccc3c(c2)CCCC(=O)N3)C1 (stereo not drawn)	-7.5%
67	Cc1noc(/C=C/N(C)C)c1S(=O)(=O)N1CCCC(C(=O)Nc2ccc3c(c2)OCO3)C1 (stereo not drawn)	?
68	COc1cccc(/C=N/N2CCN(C)CC2)c1	-0.3%
69	O=C(COC(=O)CCc1ccccc1)Nc1ccc(F)cc1Cl	3.1%
70	CC(C)(C)NC(=O)C1CN(S(=O)(=O)c2ccccc2)CCN1S(=O)(=O)c1ccccc1 (stereo not drawn)	-0.5%
71	O=S1(=O)c2ccc(Br)cc2N2CCC[C@@H]2CN1C1CC1	-0.6%
72	COc1ccc(NC(=O)CN2C(=O)C(c3ccccc3)=NC23CCC(C)CC3)cc1Cl (stereo not drawn)	2.2%
73	COc1ccc(-n2c(Cc3ccccc3)nnc2SCc2ccc([N+](=O)[O-])cc2)cc1	-9.6%
74	Cc1ccc(NC(=O)CN2C(=O)CCc3cc(S(=O)(=O)N4CCCCC4)ccc32)cc1N(C)C	9.0%
75	O=C(NCc1ccccc1Cl)C1CCC(CNS(=O)(=O)c2ccc(Br)s2)CC1 (stereo not drawn)	-7.5%
76	Cc1ccc(OCc2cc(=O)n3c4c(sc3n2)CCCC4)c(C)c1	-18.6%
77	O=C(NCc1ccc2c(c1)CCN2C(=O)c1ccc(Cl)cc1)c1cccc(F)c1	4.9%
78	COc1ccc(/C=C/C(=O)Nc2ccc3nc4c(c(Nc5ccccc5OC)c3c2)CCCC4)cc1	1.3%
79	CCOC(=O)C1=C(C)N(CCCCCC(=O)O)C(=O)NC1c1ccc([N+](=O)[O-])cc1 (stereo not drawn)	-5.3%
80	O=C(Nc1ccc(Cl)cn1)c1ccc2nccnc2c1	5.5%
81	CCN1CCN(CCCNC(=O)Cn2nc(C)n3nc(-c4ccccc4)cc3c2=O)CC1	6.8%
82	COCCNC(=O)COc1ncnc2scc(-c3ccc(F)cc3)c12	5.7%
83	CCN(CC)C(=O)c1ccc(S(=O)(=O)N2CCC(c3nc4ccccc4s3)CC2)cc1	-9.2%
84	Cc1cc(NC(=O)C2CC(c3ccc(F)cc3)=NO2)no1 (stereo not drawn)	3.8%
85	O=S(=O)(Nc1cccc(Br)c1)c1cccc2nsnc12	1.5%
86	O=C(CSc1nnc(Cc2ccccc2)o1)c1ccc2c(c1)OCO2	-7.4%
87	COc1ccc(NC(=O)CN(C)C(=O)c2ccc3c(c2)NC(=O)CS3)cc1	-13.1%
88	COc1ccc(N(C(=O)C(C)C)S(=O)(=O)c2cccs2)cc1	-6.5%

(continued)
No.	mol	VDR inhibitor
89	Cc1nn(Cc2ccccc2)c(Cl)c1C(=O)OCC(=O)NC(=O)NC12CC3CC(CC(C3)C1)C2	-1.0%
90	CCNc1c(NS(=O)(=O)c2ccc(OC)cc2)c(=O)oc2ccccc12	7.6%
91	COC(=O)C1=C(C)N(C)C(=O)NC1c1cccc2ccccc12 (stereo not drawn)	-2.3%
92	CC(C)c1ccc(-c2noc(SCC(=O)N(C)c3ccc(F)cc3)n2)cc1	12.5%
93	Cc1ccc(-n2c(=O)c3c4c(sc3n3c(=S)[nH]nc23)CCC4)cc1	12.3%
94	Cc1ccc(Sc2c(CO)c(-c3ccccc3)nn2C)cc1	-3.9%
95	CCCSC1=C(C#N)C(c2ccccc2OCC)CC(=O)N1 (stereo not drawn)	-2.0%
96	O=C(NCCc1ccccc1)c1ccc(Cl)c(S(=O)(=O)N2CCOCC2)c1	11.2%
97	Cc1ccc(C(=O)OCC(=O)NC2CCCc3ccccc32)o1 (stereo not drawn)	-7.5%
98	Cc1ccc(N(CCC#N)C(=O)COC(=O)c2cc(C)no2)cc1	2.6%
99	COc1ccccc1NC(=O)Cn1c(=O)c(N(C)C)c(N)n(C)c1=O	5.7%
100	CC(=O)c1cccc(N(C(=O)CNC(=O)c2ccco2)C(C(=O)NC2CCCC2)c2ccco2)c1 (stereo not drawn)	-2.7%
101	CCOC(=O)C1CCCN(C(=O)CCNS(=O)(=O)c2ccc(Br)cc2)C1 (stereo not drawn)	-14.6%
102	Cn1c(=O)[nH]c(=O)c2c1nc(N/N=C/c1ccncc1)n2Cc1ccc(Cl)cc1	-14.2%
103	Cc1cc(NC(=O)CCCn2c(C)c3cnn(-c4ccccc4)c(=O)c3c2C)ccc1Br	-2.4%
104	O=C(CSc1ccc(Cl)cc1)NNC(=O)c1ccco1	4.4%

Three entries already listed, arranged by the number in VDR inhibitor, rising.
No.	mol	VDR inhibitor
97	Cc1ccc(C(=O)OCC(=O)NC2CCCc3ccccc32)o1 (stereo not drawn)	-7.5%
104	O=C(CSc1ccc(Cl)cc1)NNC(=O)c1ccco1	4.4%
99	COc1ccccc1NC(=O)Cn1c(=O)c(N(C)C)c(N)n(C)c1=O	5.7%

(cont.)
No.	mol	VDR inhibitor
105	COc1ccc(C2C(C(=O)c3ccco3)=C(O)C(=O)N2CCCn2ccnc2)c(OC)c1 (stereo not drawn)	-15.8%
106	CCCN(C(=O)c1cc2c(s1)-c1ccccc1OC2)c1ccccc1F	4.0%
107	O=S(=O)(c1ccc2c(c1)OCCO2)N1CCN(c2cccc(Cl)c2)CC1	5.9%
108	COc1ccc(C(C)=O)cc1COC(=O)c1cc(=O)c2ccccc2o1	-12.0%
109	FCOC(C(F)(F)F)C(F)(F)F	2.0%
110	O=C(CCn1c(=O)c2ccccc2n(Cc2ccc(F)cc2Cl)c1=O)NCc1ccc2c(c1)OCO2	-2.4%
111	O=C(O)C1CC1c1ccc(Br)cc1 (stereo not drawn)	5.8%
112	Cc1cc(C)c(S(=O)(=O)N2CCCCC2)c(C)c1-n1ncnn1	-16.1%
113	O=C(/C=C/c1cccc(Br)c1)N1CCN(c2ccccn2)CC1	-3.5%
114	COc1ccc(NS(=O)(=O)c2cc(NC(=O)C(CC(C)C)NC(N)=O)ccc2N2CCOCC2)cc1 (stereo not drawn)	2.4%
115	O=C(COC(=O)CCSc1ccc(Cl)cc1)NCc1ccccc1	-3.6%
116	Cc1c(NC(=O)C(C)OC(=O)c2c3c(nc4ccccc24)CCC(C)C3)c(=O)n(-c2ccccc2)n1C (stereo not drawn)	10.0%
117	C=CCOc1ccc(/C=N/NC(=O)C2CCCC2)cc1OCC	-2.6%
118	COc1ccc(N2CCN(C(=O)c3csc4ccccc34)CC2)cc1	-7.9%
119	CN(C)Cc1ccccc1C1(O)c2ccccc2CSc2ccccc21 (stereo not drawn)	6.4%

Assay outcomes: PubChem BioAssay, National Center for Advancing Translational Sciences (NCATS)

An excerpt; the hit share may differ from the screen's.
